High-throughput results as filed in PubChem BioAssay.
RecA splice inh: Mtb RecA intein splicing inhibitors, primary screen, biochemical, fluorescence, HTS; Protein RecA (Mycobacterium tuberculosis (strain ATCC 25618 / H37Rv)), P9WHJ3; cell-free RecA intein splicing; inhibition, %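 (about 9 µM by stock and volumes)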; 290,000 compounds, 0.75% hits; in the data active = inhibition above about 30%; inconclusive = no clear call, values can overlap the other calls;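 note: 0% = vehicle wells and 100% = reference inhibitor control wells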
Target sequence (P9WHJ3 whole entry, looked up, canonical isoform): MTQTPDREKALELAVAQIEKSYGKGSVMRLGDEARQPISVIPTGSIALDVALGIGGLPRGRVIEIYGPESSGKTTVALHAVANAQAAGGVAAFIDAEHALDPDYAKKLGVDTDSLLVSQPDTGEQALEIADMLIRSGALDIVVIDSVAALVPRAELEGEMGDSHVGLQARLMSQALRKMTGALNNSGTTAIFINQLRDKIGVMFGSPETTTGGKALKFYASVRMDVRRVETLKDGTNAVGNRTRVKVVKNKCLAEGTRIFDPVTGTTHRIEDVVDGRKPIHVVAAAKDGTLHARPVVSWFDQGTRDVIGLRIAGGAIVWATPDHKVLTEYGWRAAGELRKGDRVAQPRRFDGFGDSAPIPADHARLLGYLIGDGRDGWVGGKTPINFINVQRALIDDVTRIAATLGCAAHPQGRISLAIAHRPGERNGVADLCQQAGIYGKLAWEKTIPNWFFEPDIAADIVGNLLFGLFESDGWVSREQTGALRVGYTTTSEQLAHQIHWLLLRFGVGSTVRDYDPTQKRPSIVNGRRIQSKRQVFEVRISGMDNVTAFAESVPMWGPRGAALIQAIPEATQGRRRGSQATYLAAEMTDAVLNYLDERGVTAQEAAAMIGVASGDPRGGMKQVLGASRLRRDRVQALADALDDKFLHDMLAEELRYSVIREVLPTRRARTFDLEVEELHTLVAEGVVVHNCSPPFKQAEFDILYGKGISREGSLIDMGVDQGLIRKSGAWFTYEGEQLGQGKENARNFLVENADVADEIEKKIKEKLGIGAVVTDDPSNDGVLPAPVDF
Mtb betalactam: beta-lactam sensitization of Mtb H37Rv, H37Rv; M. tuberculosis H37Rv growth with meropenem, percent inhibition; hits of this screen are not shown here; inhibition, % at 25 µM; 330,000 compounds, 0.27% hits; AID 434955, 2010;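 active = about 74% or more and at least 40 points above the plate without the antibiotic, then above 30% in a dose series; inconclusive = first-round hits that could not be retested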;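 note: growth measured after seven days incubation then overnight dye step; 0% = bacteria only wells and 100% = bacteria with antibiotic; twin plates without the antibiotic show which effects depend on it; some results filed as inactive read as strong as hits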
YopH inh: YopH tyrosine phosphatase inhibitors, primary screen, biochemical, fluorescence Ex485/Em525 | inhibition, %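 (about 10 µM by stock and volumes)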 | 140,000 compounds, 0.16% hits;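 active = inhibition of 50% or more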;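 note: controls were vehicle for no effect and minimum signal wells for full effect; inactives centre near -20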
Mtb growth: M. tuberculosis H37Rv growth inhibitors, H37Rv strain (AID 1626). M. tuberculosis H37Rv growth inhibition; higher % means a stronger effect. inhibition, % at 10 µM, or IC50 in µM where a hit was titrated. 220,000 compounds, 0.95% hits;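 active = confirmed in a dose series; inconclusive = inhibition above 80% but not taken into the dose series; inactive = below 80% or under 30% at every dose of the series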;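 note: bacteria incubated seven days before Alamar blue readout; 0% = bacteria only wells and 100% = bacteria with antibiotic wells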
Arbovirus inh: antivirals against arbovirus infection, primary screen, cell-based, full library, 10K replicate subset; arbovirus infection cell-based antiviral screen; inhibition, % at 10 µM; 200,000 compounds, 0.37% hits;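 active = inhibition from about 30%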;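 note: bluetongue infection of BSR cells; cell survival read as ATP light after 72 h; 0% = infected wells without compound and 100% = uninfected wells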
* = called active by the depositor; ? = inconclusive; nt = not tested or not shown. Not all compounds are listed, so the mix of outcomes need not match the whole.

structure	Arbovirus inh	YopH inh	Mtb growth	Mtb betalactam	RecA splice inh
COc1ccc(C(CCN2CCOCC2)c2c(O)cc(OC)cc2OC)cc1 (configuration not stated)	nt	nt	-10.5%	-12.4	-2.5
COc1ccc2[nH]c3nc(SCC(=O)NNC(=O)c4ccc(OC)c(OC)c4)nnc3c2c1	5.6	-30.2	-0.3%	3.8	-0.2
O=C(NCSc1ccccc1)c1ccccc1	nt	nt	nt	0.9	1.1
CCCn1c(C)cc(C(=O)COC(=O)c2nccnc2N)c1C	1.0	nt	-1.4%	1.1	0.3
CCc1ccc(-c2nc(CS(=O)CC(=O)NCCc3ccccc3)c(C)o2)cc1 (configuration not stated)	nt	nt	nt	-2.0	-13.7
Cc1ccc2c(C)c(C(=O)N(C)Cc3nccn3C)oc2c1C	nt	nt	nt	-2.5	-0.6
CN1CCN(C(=O)Nc2ccc3c(c2)N(C)C(=O)c2ccccc2S3)CC1	-2.8	nt	2.0%	-4.8	0.4
CCC(C)NCCOCCOc1ccc(F)cc1 (configuration not stated)	-1.2	-20.8	-12.5%	-3.6	1.4
COc1ccc(-n2nc(C(=O)NCC(=O)NCCN(C)C)c3ccccc3c2=O)c(OC)c1	nt	nt	nt	-3.1	-1.9
CC1CCCC(C)N1/N=C/c1ccc(O)cc1 (configuration not stated)	nt	nt	nt	-0.2	-5.6

Next structures follow:
structure	Arbovirus inh	YopH inh	Mtb growth	Mtb betalactam	RecA splice inh
CSCCC(NC(=O)C1CCC(C)CC1)C(=O)OCC(=O)c1ccc(Cl)cc1 (configuration not stated)	1.8	-33.0	-4.2%	4.3	-4.6
O=c1c2c(-c3ccco3)csc2nc(SCc2cn3cccnc3n2)n1-c1ccccc1	0.5	-40.0	1.4%	6.2	1.4
CNC(=S)Nc1cc2oc3ccccc3c2cc1OC	nt	nt	nt	5.1	-0.5
O=C(c1noc2c1CCCCC2)N1CCOCC1	5.4	-22.1	0.3%	-2.4	-3.1
NCCSC1CC(=O)N(Cc2ccc(F)cc2)C1=O (configuration not stated)	1.0	nt	-5.3%	-3.0	-1.1
O=C(CSc1nc2ccccc2c(=O)n1Cc1ccc(Cl)cc1)NCc1cccs1	-6.0	-32.9	1.2%	-10.1	-1.7
CCCNC(=O)[C@@H]1CCCN1C(=O)C1CCN(S(=O)(=O)c2ccc(C)cc2)CC1	nt	nt	nt	-0.7	0.6
CN1CCC(OC(=O)Cc2ccccc2)CC1	-3.9	nt	-4.5%	-9.8	-5.3
CCC1CCCCN1CCCNC(=O)CN1C(=O)CSc2ccc(S(=O)(=O)N3CCOCC3)cc21 (configuration not stated)	nt	nt	nt	-4.6	-2.8
CCSC1=NCCN1S(=O)(=O)c1ccccc1	-1.9	nt	3.0%	-4.1	-1.1

Other entries:
structure	Arbovirus inh	YopH inh	Mtb growth	Mtb betalactam	RecA splice inh
CN(C)C(=O)Oc1cccc(OCc2n(C)c3ccccc3[n+]2C)c1	-3.4	-24.0	-7.0%	-4.4	-0.9
O=C(c1cc(S(=O)(=O)N2CCN(c3ccccc3)CC2)ccc1Cl)N1CCCCCCC1	nt	nt	nt	1.7	8.5
COc1ccc(-c2cn(-c3ccc(OC)cc3)c3[n+]2-c2ccccc2CC3)cc1	1.0	-6.8	10.3%	-1.4	0.0
Cc1ccc(NC(=O)OCc2cncs2)cc1	5.7	nt	4.6%	-1.8	-1.5
O=C(O)c1ccccc1CSc1ncccc1C(=O)O	8.4	nt	5.6%	-1.5	-6.4
CC1CCN(CCC(=O)Nc2ccc3c(c2)OCCO3)CC1	4.8	nt	7.7%	-3.8	1.4
CC(C)OP(=O)(c1ccc(N(C)C)cc1)C(O)c1ccccc1 (configuration not stated)	1.2	5.0	-3.8%	-1.6	1.9
COc1ccc(OC)c2c(C)c(C)[nH]c12	nt	nt	-1.6%	-0.2	-2.9
COc1cc(/C=C2\C(=N)N3N=CSC3=NC2=O)ccc1OS(=O)(=O)c1ccccc1[N+](=O)[O-]	nt	nt	nt	-7.4	-2.0
CCCCCCCCCC[n+]1cccc2c3ccccc3ccc21	-29.7	nt	10.1%	nt	19.5

(listing goes on)
structure	Arbovirus inh	YopH inh	Mtb growth	Mtb betalactam	RecA splice inh
O=C(Nc1cccc(-c2nc3ncccc3o2)c1)c1sc2cc(Cl)ccc2c1Cl	12.0	-32.4	-3.0%	-11.5	2.9
CCOC(=O)CN1C(=O)N[C@@H](c2cccc(C(F)(F)F)c2)C(C(=O)OC)=C1C	nt	nt	-15.6%	-9.0	1.8
COc1cc(NC(=O)Nc2ccc(Cl)c(Cl)c2)c(C(=O)O)cc1OC	nt	nt	-6.1%	2.9	0.3
CCCCCCCCCCOC(=O)C[N+](C)(C)CC1CCCCC1O (configuration not stated)	-3.9	nt	2.0%	1.2	1.3
COc1ccc(Br)cc1/C=N/N1C(=O)CSC1=S	nt	nt	nt	2.3	-5.0
Cc1noc(C)c1COC(=O)C1CCN(S(=O)(=O)c2c(Cl)cccc2Cl)CC1	nt	nt	nt	-3.5	1.0
COc1ccc(CNC(=O)C(C)OC(=O)CO/N=C(\C)c2ccc3c(c2)OCO3)cc1 (configuration not stated)	nt	nt	nt	3.2	3.9
CCCc1nc(SCC(=O)Nc2ccccc2)c2c(=O)n(C)c(=O)n(C)c2n1	0.0	-39.8	-1.4%	-0.1	-6.2
CCOC(=O)[C@@H]1[C@H]2COc3ccc(Br)cc3[C@@H]2N2C(=O)N(c3ccc(C)cc3)C(=O)[C@]12C	nt	nt	nt	-4.9	4.6
O=c1c2ccccc2nc(CN2CCCCCC2)n1-c1ccc(F)cc1	3.0	-0.8	0.2%	-1.8	-0.3

Continued:
structure	Arbovirus inh	YopH inh	Mtb growth	Mtb betalactam	RecA splice inh
COc1ccccc1N(Cc1ccccc1)S(=O)(=O)c1cccc(C(=O)Nc2ccc(C(C)=O)cc2)c1	-5.2	3.0	-1.8%	2.8	2.6
CCC(=O)NC(=S)Nc1ccc(NC(=O)COc2ccc(Cl)cc2Cl)cc1	-7.7	-9.4	70.7%	97.3	1.4
C=CCC1(C#N)C(SC)=NC2=C(C(=O)CC(C)(C)C2)C1c1ccc(Br)cc1 (configuration not stated)	13.6	16.7	-6.8%	3.4	12.3
Cc1cccc(/C=N/NC(=O)c2cc(-c3cccnc3)nc3ccccc23)c1	-5.8	nt	7.5%	-0.9	-1.5
COC(=O)c1ccc(CSc2nc3ccccc3c(=O)n2-c2ccccc2)o1	-10.8	-2.5	2.2%	-5.0	11.9
O=C(CN1CCCCC1)N/N=C/c1cc2ccccc2nc1Cl	8.1	nt	-1.8%	-4.4	1.7
Cc1ccc(S(=O)(=O)NC2CC(=O)N(c3ccc4c(c3)OCCO4)C2)cc1 (configuration not stated)	nt	nt	nt	1.3	-0.6
CCN(CC)C(=O)CSc1nnc(-c2cc3ccccc3cc2O)n1CC	6.1	-33.7	0.4%	-3.7	-2.9
CC(=O)Nc1ccc(S(=O)(=O)NCCc2c[nH]c3ccc(C)cc23)cc1	nt	nt	nt	4.6	-1.6
CCOc1ccc(OCc2ccc(C(=O)NCC3CCCO3)o2)cc1 (configuration not stated)	-0.6	-22.1	-0.3%	0.6	1.8

Next section
structure	Arbovirus inh	YopH inh	Mtb growth	Mtb betalactam	RecA splice inh
COc1cc2c(cc1OC)CN(C(=O)CCOc1ccccc1)CC2	nt	nt	nt	-0.9	0.4
CCc1ccc(NC(=O)CN2CCc3ccccc3C2)cc1	8.4	10.4	4.1%	9.4	3.9
COc1ccc(CCNC(=O)CSc2nnc3ccc(-c4cccnc4)nn23)cc1OC	2.9	nt	0.4%	-14.3	-0.4
c1ccc(C(c2ccccc2)c2noc(CN3CCN(CC4CC4)CC3)n2)cc1	-17.5	nt	0.0%	-3.8	-0.3
CCCOc1cc2c(C#N)c(N3CCCC3)nc(N)c2c(N)n1	nt	nt	30.0%	-4.3	1.6
Fc1ccc2nc(C3CCCCN3Cc3nc(CC4CC4)no3)[nH]c2c1 (configuration not stated)	-0.9	nt	-3.0%	-5.9	1.3
O=C(CNC(=O)c1ccc(Cl)cc1)OCCCOC(=O)CNC(=O)c1ccc(Cl)cc1	nt	nt	nt	-9.7	1.7
c1ccc(CCNc2cnccn2)cc1	nt	nt	nt	-2.9	2.5
CC(C)(C)N1CC(C(=O)O)CC1=O (configuration not stated)	1.9	nt	-6.4%	-0.5	-1.4
O=C(NCC1CCCO1)c1ccc2c(=O)n(Cc3ccco3)c(SCC(=O)N3CCCC3)nc2c1 (configuration not stated)	1.2	-47.2	-8.0%	-19.3	-0.2

Other entries:
structure	Arbovirus inh	YopH inh	Mtb growth	Mtb betalactam	RecA splice inh
CCCCC(=O)NC(Nc1nc(C2CC2)cs1)(C(=O)OCC)C(F)(F)F (configuration not stated)	-8.6	-39.1	-5.9%	-1.2	2.6
C/C(=N\NC(=O)C(N)=O)c1cccc(C(F)(F)F)c1	8.8	nt	-0.9%	-3.4	-1.1
COc1ccccc1N1CCN(C(c2cccs2)C(C)NC(=O)c2cccnc2)CC1 (configuration not stated)	20.8	nt	-0.2%	-3.4	5.6
COc1ccc(C2/C=C\CN(S(=O)(=O)/C=C/c3ccccc3)[C@H](Cc3ccccc3)C(=O)N2Cc2ccc(F)cc2)cc1 (some centres not stated)	nt	nt	3.6%	-3.8	2.9
CC(C)CC(=O)N(c1nnc(-c2cccnc2)s1)C1CCCC1	nt	nt	nt	-4.7	-0.5
CCN(CC)CCOC(=O)c1ccc([N+](=O)[O-])cc1	nt	nt	1.6%	17.9	0.8
O=C(N1CCCCC1)C12CC3CC(C1)CC(C(=O)N1CCCCC1)(C3)C2	1.9	-36.4	-3.4%	-0.6	-1.9
COc1ccccc1N1CCN(C(=O)c2ccc(C(C)(C)C)cc2)CC1	9.7	37.2	16.6%	15.8	nt
Cc1ccc(C(=O)N2CCN(Cc3ccccc3)CC2)o1	nt	nt	nt	0.3	0.5
Cc1ccc(S(=O)(=O)N2CCOCC2)cc1C(=O)NCc1cccs1	4.5	nt	-5.1%	-3.9	-0.8

Additional structures follow.
structure	Arbovirus inh	YopH inh	Mtb growth	Mtb betalactam	RecA splice inh
COC(=O)c1nc(NC(=O)c2ccc(Br)cc2)n[nH]1	3.0	-48.4	-12.6%	0.4	-15.2
CCCC(C)NC(=O)COc1ccc(S(=O)(=O)c2ccc(OCC(=O)NC(C)CCC)cc2)cc1 (configuration not stated)	-8.8	-8.5	5.2%	1.3	-1.0
CCCNC(=S)NNC(=O)c1cc(-c2cccnc2)nc2ccccc12	nt	nt	nt	-2.4	4.3
O=C(c1ccc2c(c1)C(=O)N(CCCO)C2=O)c1ccc2c(c1)C(=O)N(CCCO)C2=O	1.8	-21.8	-0.7%	-4.8	nt
Cc1ccc(Cl)cc1N1CCN(CC(O)COC(C)C)CC1 (configuration not stated)	nt	nt	7.2%	1.6	-1.5
Cc1ccccc1C(=O)Oc1ccc(-c2csnn2)cc1	nt	nt	-10.5%	-11.7	1.8
COc1ccc(-c2nc(N)n[nH]2)cc1OC	5.0	0.9	2.3%	1.5	1.6
Cc1cc(N/N=C/c2cccc(Br)c2)nc2ccccc12	6.3	-17.8	?	88.9	-0.4
COC(=O)CSc1nc(C2CC2)cc(C(F)(F)F)c1C#N	-8.9	-46.4	5.9%	86.5	1.3
COc1ccc(CC2(CO)CCN(Cc3ccc(NC(C)=O)cc3)CC2)cc1	-0.6	nt	7.9%	-5.2	-0.5

Shown with values under each structure: 4 of the compounds above.
The line under a structure holds: Arbovirus inh, YopH inh, Mtb growth, Mtb betalactam, RecA splice inh
> COc1cc2c(cc1OC)CN(C(=O)CCOc1ccccc1)CC2
 : nt, nt, nt, -0.9, 0.4
> CCc1ccc(NC(=O)CN2CCc3ccccc3C2)cc1
 : 8.4, 10.4, 4.1%, 9.4, 3.9
> COc1ccc(CCNC(=O)CSc2nnc3ccc(-c4cccnc4)nn23)cc1OC
 : 2.9, nt, 0.4%, -14.3, -0.4
> c1ccc(C(c2ccccc2)c2noc(CN3CCN(CC4CC4)CC3)n2)cc1
 : -17.5, nt, 0.0%, -3.8, -0.3

More compounds:
structure	Arbovirus inh	YopH inh	Mtb growth	Mtb betalactam	RecA splice inh
CC1(C(=O)O)CCC(C(=O)Nc2ccc(S(N)(=O)=O)cc2)C1(C)C (configuration not stated)	6.4	-41.4	0.7%	4.1	0.5
CC(=O)Nc1ccc2c(c1)C(=O)N(c1ccc(C)cc1)C2=O	0.5	-6.2	1.7%	-3.4	-1.2
CC(NC(=O)Nc1cccc([N+](=O)[O-])c1)(C(F)(F)F)C(F)(F)F	7.6	-36.7	1.6%	-7.8	nt
COc1ccc(C(=O)COC(=O)CNS(=O)(=O)c2ccc(C)cc2)cc1	-0.9	-23.0	-0.4%	-5.4	0.3
CN(C)c1nc(NCc2ccccc2)nc(SCC(=O)Nc2ccccc2Cl)n1	6.7	-23.8	8.0%	-1.4	0.4
COc1ccc(N2C(=O)C(CC(=O)Nc3ccc(Cl)cc3)N(NC(=O)c3cccc(F)c3)C2=S)cc1 (configuration not stated)	nt	nt	-5.7%	-4.0	-0.9
